Screens from PubChem BioAssay.
D2 PAM = positive allosteric modulators of human D2 dopamine receptor | P14416 | DiscoveRx D2 beta-arrestin cells, luminescence, 90 min; 100% = 57 uM dopamine signal | potentiation, % (concentration not given with the values) | 0.23% of 360,000 active; active = potentiation of 50% or more; inconclusive = 30% to 50%; inactive = 30% or less;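 further: compound concentration not given in the record; tested on top of an EC20 dose of dopamine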
Target sequence (P14416 whole entry, looked up): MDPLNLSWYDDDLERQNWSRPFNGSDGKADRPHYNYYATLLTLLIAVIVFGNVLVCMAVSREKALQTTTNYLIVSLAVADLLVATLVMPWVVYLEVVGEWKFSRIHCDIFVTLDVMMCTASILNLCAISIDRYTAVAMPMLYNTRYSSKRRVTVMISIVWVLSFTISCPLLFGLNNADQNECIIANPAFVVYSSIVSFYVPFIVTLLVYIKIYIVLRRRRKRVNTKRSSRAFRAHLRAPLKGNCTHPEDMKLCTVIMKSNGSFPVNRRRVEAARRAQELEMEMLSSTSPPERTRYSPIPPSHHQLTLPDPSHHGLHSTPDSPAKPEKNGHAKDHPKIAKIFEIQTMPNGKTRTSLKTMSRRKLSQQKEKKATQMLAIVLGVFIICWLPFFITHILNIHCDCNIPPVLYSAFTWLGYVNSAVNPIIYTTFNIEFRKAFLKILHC
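PathHunter D2 cells, attached overnight at 37 deg C, received compound in DMSO plus dopamine at EC20 (50 nM final) for 90 min at 37 deg C. Beta-arrestin recruitment was read as luminescence after 1 h with detection reagent at ambient temperature.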
gsp antag = antagonizes gsp, the McCune-Albright syndrome mutation; gsp-mutant cells, cAMP HTRF, 30 min; control for the full effect not named in the record; Potency, µM (titrated, usually from 76.9 µM), without a hit: at the highest dose activity change, negative = inhibition, hits mostly inhibitors; 0.4% of 340,000 active; AID 624288; active = falling curve of any shape with a large fitted effect; inconclusive = falling curve, mostly with a smaller effect; inactive = flat or rising curve; cell line not stated here;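 further: intracellular cAMP measured with PDE inhibitor Ro 20-1724 present during compound exposure; potency means the concentration at half of the fitted maximal effect; on the % scale 0 is the no-effect control and ±100 the full control effect; nearly all actives have a fitted effect of over 65% in size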
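G418-selected cells were plated in DMEM/10% FBS for 16-24 h at 37C, then treated with compounds plus the PDE inhibitor […] (300 uM solution added) for 30 min at 37C. Intracellular cAMP was measured by HTRF after 30 min lysis at room temperature.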
Menin MLL FP FL = inhibitors of human menin-MLL interaction, wild-type MLL peptide | Fluorescence polarization, fluorescein-MLL peptide displacement from menin | FP activity change, % at 61.4 µM | 290,000 tested, under 10 active | AID 1766; inconclusive = falling polarisation curve, or a change in total fluorescence; inactive = total fluorescence flat and polarisation flat or rising; no compound was filed as active; the % refers to the polarisation; negative = inhibition;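 further: % of control where 0% means no effect; inhibitors lower the polarisation; unlabelled MLL peptide was the positive control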
ClpP mod = qHTS Assay for Activators of ClpP | purified B. subtilis ClpP, FRET peptide cleavage, 20 min | Potency, µM (highest dose often 57.5 µM), for inactives: at the highest dose activity change, negative = active | 1.9% of 340,000 active | AID 651965, 2013; active = well fitted falling curve with a large enough effect; inconclusive = small, poorly fitted or top-dose-only effect; inactive = no such curve, though single readings can be large or run the other way; further: potency means the concentration at half of the fitted maximal effect; the source files actives as falling curves though it sought activators and does not explain the sign; nearly all actives have a fitted effect of over 65% in size; many hits overshoot -100%
Target sequence (P80244 whole entry, looked up): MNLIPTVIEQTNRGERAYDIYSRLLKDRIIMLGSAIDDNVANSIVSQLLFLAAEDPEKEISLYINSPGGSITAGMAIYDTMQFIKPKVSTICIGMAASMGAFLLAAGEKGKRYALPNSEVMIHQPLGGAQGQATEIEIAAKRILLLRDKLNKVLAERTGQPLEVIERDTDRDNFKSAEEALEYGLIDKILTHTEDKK
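ClpP 10 microg/mL final, pH 8 Tris/KCl buffer with BSA, glycerol, Tween-20; compound pinned in; FRET-FV substrate; RT 20 min; Ex320/Em430; ΔFRET vs ADEP 5.8 microM, DMSO, no enzyme.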
Sfp inh = inhibitors of Bacillus subtilis Sfp phosphopantetheinyl transferase; Potency, µM, without a hit: max response, negative = inhibition, hits mostly inhibitors; Biochemical Sfp PPTase activity, qHTS; AID 1490; Q9F4F7; 3.5% of 310,000 active; active means well fitted inhibition curve with a large enough effect; inconclusive means small, poorly fitted or top-dose-only effect, or another doubt; inactive means no such curve, though single readings can be large or run the other way;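 further: the enzyme is Sfp with the accession as filed and its product quenches rhodamine fluorescence; potency means the concentration at half of the fitted maximal effect; 0% = enzyme reaction without inhibitor and -100% = no enzyme wells; top concentration of the series not given in the record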
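Sfp 15 nM + cpd, 15 min RT; start w/ rhodamine-CoA 5 uM, BHQ-2-YbbR 12.5 uM (final); 50 mM Hepes pH 7.6, 10 mM MgCl2, 0.01% NP-40, 0.01% BSA; read 525/598 nm at 0 and 30 min.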
TRPV1 PAM = potentiators of human vanilloid receptor 1 (TRPV1) | AID 540277 | TRPV1-expressing cells, Fluo-8 calcium influx, capsaicin EC20 potentiation; host cell line not named in the record; control for the full effect not named in the record | potentiation, % at 8.33 µM | Q8NER1 | 0.02% of 320,000 active; active means potentiation above 80%; inconclusive means 30% to 80%; inactive means below 30%; further: 0% is about no effect
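Fluo-8 calcium influx in TRPV1-expressing cells, kinetic read (ex 480/em 520 nm). Compound added and read 3 min for agonist activity, followed by capsaicin at EC20 final and 2 min further read for enhancement.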
gsp ag = agonists of gsp mutant (McCune-Albright syndrome); Potency, µM (highest dose often 76.9 µM), for the others: at the top dose activation (cAMP increase), hits mostly activators; gsp mutant cells, cAMP HTRF, 30 min; control for the full effect not named in the record; 0.13% of 340,000 active; AID 624287; active = well fitted activation curve with a large enough effect; inconclusive = small, poorly fitted or top-dose-only effect, or another doubt; inactive = no such curve, though single readings can be large or run the other way; cell line not stated here;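 further: phosphodiesterase inhibitor Ro 20-1724 added with compounds to block cAMP breakdown; potency means the concentration at half of the fitted maximal effect; nearly all actives have a fitted effect of over 60% in size; about a fifth of the inactives were tested at one dose only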
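Cells stably selected in G418 were plated at 2000/well, grown 16-24 hr, then given compounds in DMSO with the PDE inhibitor […] (300 uM solution added) for 30 min at 37C; cAMP was read by HTRF.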
* = called active by the depositor; ? = inconclusive; . = no result given; & = joins results of further samples; [ ] = another dose, or the depositor's remark.

Results follow in this order: D2 PAM	gsp antag	Menin MLL FP FL	ClpP mod	Sfp inh	TRPV1 PAM	gsp ag
- Cc1cc(C)c(NC(=O)CCCC(=O)O)c(Cl)c1
→ -4	9%	4.2	-5.0%	12%	-4	?
- CCC(C)n1c(S(=O)(=O)O)nc2ccccc21 (stereo unspecified)
→ -2	-3%	1.5	-0.4%	-9%	17	2%
- c1ccc(Cn2c(-c3ccco3)nc3nc4ccccc4nc32)cc1
→ -18	-3%	11	62%	-8%	9	-14%
- COc1ncnc(OC)c1S(=O)(=O)Nc1ccc(C(F)(F)F)cc1
→ -12	-1%	-6.4	1.0%	12%	7	-20%
- COc1ccc(CNC(=O)C2(CC3CC(c4ccccc4)=NO3)CCN(C(=O)c3cccc(O)c3)CC2)cc1 (stereo unspecified)
→ 2	-16%	.	0.2%	.	.	.
- COc1cccc(CN(C)C(=O)C23CC4CC(CC(NC(C)=O)(C4)C2)C3)c1OC
→ -5	10%	.	1.1%	17%	-6	7%
- Nc1nc(N)nc(-c2ccc([N+](=O)[O-])o2)n1
→ 22	2%	.	.	.	.	-25%
- CC(C)Oc1ccc(C(=O)/C(=C\c2cccs2)c2nc3ccccc3o2)cc1
→ -17	-8%	-1.6	.	3%	-2	-1%[15.4 µM]
- Cn1nc(-c2ccccc2)cc1NS(=O)(=O)c1ccc(C#N)cc1
→ -11	-4%	3.4	.	9%	8	-1%[15.4 µM]
- CCOC(=O)c1ccc(N(CC(=O)NC2CCCCC2)C(=O)CNC(=O)c2ccco2)cc1
→ -4	-6%	-0.7	.	13%	-7	32%[15.4 µM]
- CCOc1ccc(Nc2nc(N)c([N+](=O)[O-])c(NCc3ccccc3)n2)cc1
→ -4	20%	0.4	.	8%	.	-5%[15.4 µM]
- Cc1[nH]c2ccccc2c1SCC(=O)Nc1nccs1
→ -3	9%	-0.9	3.2%	16%	5	3%
- CN(C)CCNC(=O)c1nn(C)c2c1CCc1ccccc1-2
→ -22	15%	6.3	-5.7%	17%	6	4%
- COc1ccc(N(CC2CO2)S(=O)(=O)c2ccccc2)cc1 (stereo unspecified)
→ 6	9%	-3.3	.	8%	-13	-3%
- O=C(Nc1ncccc1O)c1ccc2ccccc2c1
→ -11	9%	.	-0.6%	11%	25	13%
- CC(=O)Nc1ccc(N/C(C)=C/C(=O)c2cccnc2)cc1
→ 13	0%	6.6	?	27%	-3	18%
- COc1ccc(C(=O)N/C(=C\c2cn(S(=O)(=O)N(C)C)c3ccccc23)C(=O)NCCCn2ccnc2)cc1
→ -15	2%	.	-0.2%&1.3%	13%	6	?
- Cc1ccc(S(=O)(=O)N2CCN(c3nc(C(C)C)c4c(c3C#N)CC(C)(C)OC4)CC2)cc1
→ -1	-12%	5.7	14µM*	-17%	18	19%
- O=C(NCc1ccc(F)cc1)c1c2c(nc3ccccc13)CCC2
→ -3	1%	2.1	.	13%	-2	1%[15.4 µM]
- CCOC(=O)c1c(NC(=O)COC(=O)c2ccccn2)sc(C)c1C
→ 2	12%	.	0.0%	.	0	0%
- CSCC[C@H](NC(=O)NCc1ccc(F)cc1)C(=O)O
→ -15	-7%	-1.1	1.0%	8%	1	?
- NC1=NC(=O)C(Cc2cccc(Cl)c2)S1 (stereo unspecified)
→ -8	19%	0.8	-0.9%	0%	1	-3%[15.4 µM]
- CC(C)(C)c1ccc(C(=O)NCCC(=O)NCc2ccco2)cc1
→ -6	-10%	1.5	-0.1%	14%	-23	18%
- Cc1cccc(-[n+]2c(-c3cccc(Br)c3)[nH]c3nc4ccccc4nc32)c1
→ 0	?	4.7	.	-7%	6	1%[15.4 µM]
- Cc1ccc(C(=O)OCC(=O)NCCC2=CCCCC2)s1
→ -5	6%	-1.7	-1.2%	0%	9	17%
- CCCCC(=O)NCc1ccccc1Cl
→ -2	-4%	4.1	.	9%	-1	0%
- Cc1nc2ccc(NS(=O)(=O)c3ccc(F)cc3F)cc2s1
→ 8	-12%	.	-1.7%	.	3	22%
- CS(=O)(=O)N(CC(=O)N1CCCCC1)c1ccc2c(c1)OCO2
→ 2	1%	0.8	-2.6%	2%	1	-24%
- CC(=O)c1cccc(NC(=O)C(C)OC(=O)c2ccc(-n3cnnn3)cc2)c1 (stereo unspecified)
→ -8	-1%	.	-3.1%	.	4	-2%
- O=C(CSc1ccc(-c2ccccn2)nn1)N1CCCC1
→ -27	8%	-1.5	0.5%	45µM*	12	7%[15.4 µM]
- CC(=O)N1CCc2[nH]c3ccc(C)cc3c2C1
→ -7	-8%	-27	-6.7%	-18%	14	-63%
- Cc1nnc(C)c2c(C)n(C(C)c3ccccc3)c(C)c12 (stereo unspecified)
→ -6	-11%	?	-12%	?	-2	0%
- Cc1ccc(C(=O)c2ccc(O)cc2)cc1C
→ -5	-15%	-0.6	-5.6%	8%	2	-1%
- C=CCN(c1ccccc1)S(=O)(=O)c1ccc(Cl)c(C(=O)OCC(=O)c2[nH]c(C)c(C(C)=O)c2C)c1
→ -3	-21%	3.9	-1.7%	-2%	-8	18%[15.4 µM]
- COC(=O)CSc1nnc(CNC(=O)c2ccccc2F)n1-c1ccc(F)cc1
→ -6	4%	-4.2	.	6%	4	-5%[15.4 µM]
- O=Nc1c(O)[nH]c2ccc(Cl)c(Cl)c12
→ -33	2%	.	.	.	.	9%
- COc1ccc(NC(=O)CSCC(=O)N(C)Cc2cccc(OC)c2OC)cc1
→ -9	1%	.	-10.0%	.	-1	-38%[inhibitor]
- COc1cccc(-c2ccc(C#N)c(=O)[nH]2)c1
→ -10	1%	3.3	.	23%	7	-5%[15.4 µM]
- Cc1ccc(S(=O)(=O)N2CCN(C(=O)C3CCCCC3)CC2)cc1
→ -2	6%	4.3	0.1%	0%	-6	10%
- O=C(O)CSc1ncnc2sc3c(c12)CCCC3
→ -3	-16%	-0.5	.	-22%	-5	88%[15.4 µM]
- O=C(c1nc2ccc(Cl)cn2c1CN1CCC(O)CC1)N1CCc2ccccc2C1
→ -11	-5%	.	-2.5%	2%	-2	2%
- CC(C)(C)CC(=O)NC(=S)Nc1ccccc1C(F)(F)F
→ 0	12%	-1.2	0.3%	10%	-11	?
- C=CCNC(=O)c1ccc2nc(Cc3ccc(OC)cc3)oc2c1
→ 0	11%	.	.	.	.	15%
- O=C1COc2ccc(S(=O)(=O)N3CCN(c4ccccc4F)CC3)cc2N1
→ -1	10%	.	1.5%	16%	-7	-39%[inhibitor]
- CCOC(=O)c1sc(NC(=O)COc2ncnc3ccccc23)c(C(=O)OCC)c1C
→ -1	-2%	16	3.3%	-9%	-10	-30%
- Cc1cc(N2CCN(Cc3nc(-c4ccc(F)cc4)oc3C)CC2)cc(C)n1
→ -10	-3%	-1.4	-4.2%	-8%	2	-40%[inhibitor]
- CC(C)Cn1nc(C(=O)Nc2cccc(S(=O)(=O)N3CCCC3)c2)c2ccccc2c1=O
→ -10	-3%	.	-21%	.	16	?
- O=C1NC2(CCC3(CC2)OCCO3)NN1c1ccc(Cl)cc1
→ 17	1%	-0.4	.	-4%	-1	8%
- CN(C(=O)Cn1c(Cl)nc2c1c(=O)n(C)c(=O)n2C)C1CCS(=O)(=O)C1 (stereo unspecified)
→ -6	1%	.	-1.6%	.	7	4%
- Oc1ccc(C2N=C(c3ccccc3)NC(c3ccccc3)=N2)cc1
→ -24	-3%	4.1	0.9%	0%	7	-16%
- CCN(CC)CCCN1C(=O)C(=O)/C(=C(/O)c2ccc(Cl)cc2)C1c1ccccn1 (stereo unspecified)
→ -10	24%	3.6	-1.1%	-13%	-1	11%
- O=C(NC1CCCCC1)C(c1ccccc1)N(C(=O)c1cccs1)c1ccc2c(c1)OCO2 (stereo unspecified)
→ -7	-2%	1.6	0.9%	26%	-6	12%
- C=C(C)CN(CC)C(=O)CN1C(=O)NC(C)(c2ccc3ccccc3c2)C1=O (stereo unspecified)
→ -2	-8%	5.4	1.1%	14%	7	3%
- COc1ccc(C2=NN(CN3C(=O)C(=O)c4ccccc43)C(c3cccc([N+](=O)[O-])c3)C2)cc1 (stereo unspecified)
→ -17	-2%	0.9	.	15%	-10	15%[15.4 µM]
- O=C(O)c1ccc(Cl)c(S(=O)(=O)NCc2ccco2)c1
→ -3	3%	-0.5	-1.1%	9%	4	-2%
- O=C(COC(=O)c1ccc(Cl)c(Cl)c1)NC1CCCC1
→ -4	10%	1.3	-1.4%	18%	-13	-31%[inhibitor]
- S=C(Nc1ccccc1Cl)N1CCCCCC1
→ -1	-8%	-1.2	.	16%	-5	-10%[15.4 µM]
- O=C(N/N=C/c1cccc(OC(=O)c2ccco2)c1)c1ccc(F)cc1
→ -10	3%	2.7	0.6%	-11%	6	-1%[15.4 µM]
- COc1ccc(/C=N/n2c(C)cc(C)c(C(N)=O)c2=O)cc1
→ -12	0%	1.1	-2.7%	3%	-5	8%
- CCC(=O)NCc1cc(-c2nn(C)c(=O)c3ccccc23)ccc1C
→ -3	0%	1.1	-3.5%	15%	7	2%

Next part:
Results follow in this order: D2 PAM	gsp antag	Menin MLL FP FL	ClpP mod	Sfp inh	TRPV1 PAM	gsp ag
- CCOC(=O)[C@@H]1[C@H]2COc3ccccc3[C@@H]2N2C(=O)N(c3ccc(OC)cc3)C(=O)[C@@]12C
→ -8	2%	2.3	-2.7%	14%	-12	2%
- CCN(C[C@H]1N[C@@](C)(C(=O)OC)[C@H]2C(=O)N(Cc3ccccc3)C(=O)[C@@H]12)S(=O)(=O)c1ccc(C)cc1
→ -3	-4%	.	2.8%	.	.	.
- Cc1nc2ncnn2c(C)c1CCC(=O)NCc1ccccc1
→ -15	3%	2.5	1.3%	28%	-19	8%
- CCCOc1ccc(C2NC(=O)NC(c3ccccc3)=C2C(C)=O)cc1OCC (stereo unspecified)
→ 5	-2%	3.6	-0.8%	-1%	0	?
- COc1ccc(Nc2ncnc3ccc(C)cc23)cc1
→ -21	-3%	-2.8	2.4%	7%	16	5%
- CCC(CC)NCc1ccc2c(c1)c1ccccc1n2CC
→ -17	13%	-0.3	-17%	50µM*	-7	0%
- O=C(NCCC(=O)N1CCN(c2ccccn2)CC1)c1ccc(Br)cc1
→ -9	-5%	.	.	.	-9	11%[15.4 µM]
- CSCCC(NC(=O)CCNC(=O)c1ccccc1Cl)c1nc2ccccc2[nH]1 (stereo unspecified)
→ -18	11%	.	-0.2%	.	-4	3%
